From PubChem
BLM helicase inh: inhibitors of human Bloom syndrome helicase BLM; P54132; recombinant BLM DNA unwinding, fluorescence dequenching; Potency, µM (series often up to 56.1 µM), for the others: at the top dose activity change, negative = inhibition, most hits filed as inhibitors; hit rate 0.2% among 350,000; AID 2528;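 further: plate controls were vehicle for no effect and no enzyme for full effect; nearly all actives have a fitted effect of over 35% in size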
Pol iota inh: inhibitors of human DNA polymerase iota. Q9UNA4. Pol iota fluorescent replication assay, 10 min. Potency, µM (titrated, usually from 115 µM), for the others: at the highest dose activity, negative = inhibition, hits mostly inhibitors. hit rate 1% among 390,000. AID 588590
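Pol iota at 10 nM preincubated 15 min with compounds at room temperature; reaction started with fluorescent substrate, 50 nM final. Fluorescence read kinetically at 0 and 10 min; buffer-only wells as negative control.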
PGK inhibitor: T. brucei PGK inhibition; PGK/GAPDH coupled, Kinase-Glo luminescence, 60 min; P07378; Potency, µM (highest dose often 57.5 µM), without a hit: top-dose activity change, negative = inhibition, actives largely listed as inhibitors; hit rate 0.043% among 380,000; further: on the % scale 0 is the no-effect control and ±100 the full control effect; nearly all actives have a fitted effect of over 60% in size
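Recombinant glycosomal PGK reaction used 1,3-bisphosphoglycerate generated in-well by GAPDH (100nM final) in 100mM TEA pH 7.6, 5mM MgCl2, 0.01% Tween-20. After 60 minutes at room temperature, ATP was read by Kinase-Glo Plus luminescence end-point.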
Pin1 inhibitor: blocks the human prolyl isomerase Pin1 | Pin1 FP peptide displacement, HiFluor488, 10 min | AID 504891 | Potency, µM (series often up to 115 µM), for inactives: at the highest dose activity, negative = inhibition, most hits filed as inhibitors | Q13526 | hit rate 0.009% among 390,000; active means well fitted inhibition curve with a large enough effect in the polarisation, with a control signal flat, not every such curve was filed as active; inconclusive means small, poorly fitted or top-dose-only effect, or effect the other way, or a change in a side signal; inactive means no such curve, though single readings can be large or run the other way; the % refers to the polarisation; further: on the % scale 0 is the no-effect control and ±100 the full control effect
Target sequence (Q13526 whole entry, looked up): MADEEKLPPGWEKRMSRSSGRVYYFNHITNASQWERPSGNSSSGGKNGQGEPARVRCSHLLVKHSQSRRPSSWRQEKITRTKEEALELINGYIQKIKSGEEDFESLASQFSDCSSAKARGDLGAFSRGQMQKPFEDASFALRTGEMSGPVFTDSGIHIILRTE
G9a block: G9a (human) methyltransferase inhibition; Q96KQ7; G9a H3K9 monomethylation, AlphaScreen, 2 h; Potency, µM (series often up to 102 µM), without a hit: at the highest dose activity, negative = inhibition, actives largely listed as inhibitors; hit rate 8.8% among 350,000; AID 504332; further: on the % scale 0 is the no-effect control and ±100 the full control effect; nearly all actives have a fitted effect of over 75% in size
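AlphaScreen read-out: biotin-H3K9 peptide (500 nM) methylation by 20 nM enzyme with 20 uM SAM, 2 h at room temperature after 15 min compound preincubation; anti-monomethyl H3K9 antibody plus donor/acceptor beads, 10 min dark.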
GLS inhibitor: inhibitors of human glutaminase (GLS); AID 624170; GLS enzymatic activity, qHTS titration; hit rate 0.21% among 410,000; Potency, µM (highest dose often 45.5 µM), for inactives: at the top dose activity change, negative = inhibition, usual class: inhibitors; O94925; further: on the % scale 0 is the no-effect control and ±100 the full control effect
Target sequence (O94925 whole entry, looked up): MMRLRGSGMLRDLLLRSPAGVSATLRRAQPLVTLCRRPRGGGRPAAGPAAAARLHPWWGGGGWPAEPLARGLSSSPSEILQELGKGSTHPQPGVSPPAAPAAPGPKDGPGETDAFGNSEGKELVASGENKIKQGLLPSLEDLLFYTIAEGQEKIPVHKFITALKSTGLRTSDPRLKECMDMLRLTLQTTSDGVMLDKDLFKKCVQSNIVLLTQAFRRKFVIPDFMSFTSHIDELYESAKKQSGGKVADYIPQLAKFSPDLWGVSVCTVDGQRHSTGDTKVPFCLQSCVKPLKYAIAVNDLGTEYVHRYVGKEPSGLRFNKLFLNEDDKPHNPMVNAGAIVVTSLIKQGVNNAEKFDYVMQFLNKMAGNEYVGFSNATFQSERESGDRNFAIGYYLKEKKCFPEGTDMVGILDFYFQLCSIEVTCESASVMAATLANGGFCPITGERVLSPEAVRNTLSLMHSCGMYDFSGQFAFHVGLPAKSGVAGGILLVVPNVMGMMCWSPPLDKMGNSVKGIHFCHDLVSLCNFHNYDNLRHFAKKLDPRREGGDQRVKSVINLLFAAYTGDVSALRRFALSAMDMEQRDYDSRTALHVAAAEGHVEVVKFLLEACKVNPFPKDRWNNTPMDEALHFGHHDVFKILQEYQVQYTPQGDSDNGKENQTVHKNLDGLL
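Enzyme dispensed in phosphate buffer (45 mM, pH 8.2, 0.02% Tween-20), compounds pinned in, then 1 mM L-glutamine solution and the glutamate oxidase–HRP–Amplex Red mix added; fluorescence read immediately and again after 30 min at room temperature.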
Active calls of the source: *; i = inactive; ? = inconclusive; . = no result given; [ ] = dose if it differs, or a comment. Unless noted, the call rests on the fitted dose curve; in most records, active means well fitted curve in the direction sought with a large enough effect; inconclusive means small, poorly fitted or top-dose-only effect, or another doubt; inactive means no such curve, though single readings can be large; an effect the other way counts as inactive or inconclusive. Potency means the concentration at half of the fitted maximal effect. This is a subset. The share of hits here may be higher or lower than overall.

The line under a structure holds: BLM helicase inh, Pol iota inh, PGK inhibitor, Pin1 inhibitor, G9a block, GLS inhibitor
- N[C@@H](CCC(=O)N[C@H](CSN=O)C(=O)NCC(=O)O)C(=O)O
→ ., -3%[58.9 µM], ., ., 8.9µM*, .
- O=C(O)c1cnn2c(-c3ccccc3)ccnc12
→ -2%, 31%, i, -2%, 35µM*, 0%
- CCN1CCN(c2oc(/C=C/c3ccccc3)nc2C#N)CC1
→ -2%, 39%[activator], -5%, -3%, ., -3%
- Cc1ccc(/C(O)=C2/C(=O)C(=O)N(CCN3CCOCC3)C2c2ccccn2)cc1 (stereo unspecified)
→ -4%, 22%, -1%, ?, ?, -1%
- COc1ccc(-c2ccnc3c(C(=O)O)cnn23)cc1
→ 0%, 1%, i, 4%, ?, 19%
- O=C(CSc1ccc2nnc(-c3ccccn3)n2n1)Nc1ccc2c(c1)OCCO2
→ -3%, 17%, i, 1%, 0%, 3%
- O=C(Nc1nnc2n1CCS2)c1ccccc1C(F)(F)F
→ -1%, 9%, 1%, -1%, 3.2µM*, -7%
- Cc1ccc(C)c(S(=O)(=O)N2CCN(CC(=O)N3CCc4ccccc4C3)CC2)c1
→ 2%, 12%, -1%, -2%, 6.3µM*, -7%
- NC(=O)NC(=O)c1nccnc1C(=O)O
→ -3%, -21%, 0%, 6%, 26%[0.501 µM], -3%
- C=CCNC(=S)NN=C1CCC(c2ccccc2)CC1 (stereo unspecified)
→ -2%, 14%, -9%, -5%, 13µM*, -3%
- CC(=O)c1ccc(NC(=O)CNC2CCCCC2)cc1
→ 1%, ?, -7%, -5%, 79µM*, 3%
- COc1ccc(OC)c(C(c2nnnn2C2CCCC2)N2CCN(c3ccc(F)cc3)CC2)c1 (stereo unspecified)
→ -5%, ?, 2%, 15%, ?, 14%
- CC(C)(C)OC(=O)CNC(=O)c1[nH]cnc1C(=O)NC1CCNCC1
→ ., ?, -10%, -4%, ., -13%
- Cc1ccc(NC(=O)CSc2nccn2C2CCCC2)cc1Cl
→ -2%, -19%, 3%, ?, ?, -9%
- CCOC(=O)N1CCN(CC(O)c2ccccc2)CC1 (stereo unspecified)
→ -11%, 1%, -3%, 2%, 7.9µM*, -8%
- COC(=O)c1c(C(=O)OC)c(-c2ccc(Cl)c(Cl)c2)n2c1CCC2
→ -9%, 22%, -4%, 2%, 50µM*, 2%
- CC(C)/C(=N/Nc1ccccc1[N+](=O)[O-])c1ccccc1
→ -9%, 10%, -1%, -3%, ?, 8%
- Cc1ccccc1NC(=O)c1[nH]cnc1C(=O)NN
→ -3%, 156%[activator], -5%, -1%, -38%, ?
- Cc1ccc(-c2c(CN3CCN(c4cccc(C)c4)C(C)C3)csc2C)cc1 (stereo unspecified)
→ -3%, 8%, 1%, -1%, -48%[59 µM], -2%
- O=[N+]([O-])c1ccc(CN2CCN(c3ccccc3)CC2)o1
→ -7%, 10%, -6%, -14%, -12%[0.501 µM], 3%
- CC(C)(C)OC(=O)N1CCN(C(=O)c2[nH]cnc2C(=O)Nc2nccs2)CC1
→ ., -14%, 1%, -3%, 0%[0.501 µM], 16%
- O=C(CC(c1ccccc1)c1ccccc1)Nc1nn[nH]n1
→ -4%, 66%[activator], -6%, -16%, 45µM*, -7%
- OCCNCCCCSc1ccc(Cl)cc1
→ 4%, 11%, -9%, -3%, 11µM*, -3%
- Cc1nn(-c2ccccc2)c(C)c1/C=N/n1c(-c2ccccc2Br)n[nH]c1=S
→ -11%, 69%[activator], -8%, 7%, 3.2µM*, 23%
- COc1ccc(CNCC(=O)Nc2cc(OC)cc(OC)c2)cc1
→ 1%, ?, ., -5%, 2.5µM*, 0%
- Cc1ccccc1CN1CCN(C(=O)CC(C)C)CC1
→ 1%, -17%, i, -3%, -8%[0.501 µM], -4%
- O=C1C2CC=CCC2C(=O)N1c1ccc(NCCc2ccc(O)cc2)c([N+](=O)[O-])c1 (stereo unspecified)
→ -6%, 32%[activator], 9%, ?, 40µM*, 3%
- Cc1ccc(N/C(C(Cl)=C(Cl)Cl)=C(/Cl)[N+](=O)[O-])c(C)c1
→ -14%, 16µM*, ., 6%, 25µM*, 21%
- CCN(c1ccc(NC(=O)COC(=O)c2ccc(C)s2)cc1)C(C)C
→ -6%, ?, -2%, ?, 10µM*, 47%[activator]
- CCOC(=O)c1cc2c(ccn2C)n1Cc1ccc(C#N)cc1
→ -9%, -12%, -4%, 2%, 40µM*, 3%
- O=C(COC(=O)c1cccc(O)c1)Nc1nnc(-c2ccccc2)o1
→ ., 35%[activator], 3%, 8%, 2%, 2%
- CC(=O)CCc1oc2c([N+](=O)[O-])cccc2c1-c1ccc(C)o1
→ -12%, -24%, -12%, -8%, 40µM*, 2%
- O=C(CN1CCN(C/C=C/c2ccccc2)CC1)Nc1ccccc1C(=O)NC1CC1
→ -6%, -2%, -1%, 1%, 20µM*, 8%
- O=C(CNCc1ccccc1)Nc1cccc(Cl)c1Cl
→ -3%, 47%[activator], 4%, 6%, 10µM*, 7%
- O=C(C(c1ccccc1)c1ccccc1)N1CCN(Cc2ccco2)CC1
→ 4%, 1%, -8%, -9%, 4µM*, 18%
- COc1cc(CN2CCC(C(=O)N3CCN(c4ccccc4F)CC3)CC2)cc(OC)c1O
→ 2%, 5%, -2%, -1%, 10µM*, ?
- CC(/C=N/n1c(-c2ccco2)n[nH]c1=S)=C\c1ccccc1
→ -1%, 1%, 3%, -1%, 1.3µM*, 6%
- COc1cccc(C(=O)Oc2cc3c4c(c2)C(C)=CC(C)(C)N4C(=O)C3=O)c1
→ -11%, 16%, -2%, -2%, 8.9µM*, -3%
- CC(=C/c1ccccc1)/C=N/n1c(-c2ccco2)n[nH]c1=S
→ 1%, 24%, -1%, -10%, 0.56µM*, .
- COc1cccc(C(=O)N2CCN(C3CCC(c4ccccc4)CC3)CC2)c1OC (stereo unspecified)
→ -2%, 15%, -2%, -4%, ?, 3%
- CC(C)N(CC#CCC(O)(c1ccccc1)C1CCCC1)CCO (stereo unspecified)
→ -2%, ?, -1%, 5%, 3.2µM*, -4%
- CS(=O)(=O)c1ccc(-c2nnc(NC(=O)c3ccco3)o2)cc1
→ ., -3%, i, -3%, 13µM*, -1%
- CCOc1ccc(Nc2nc(Cc3nnc(SCC(=O)NCc4ccco4)n3CC)cs2)cc1
→ -7%, 15%, ., -13%, -3%[12.7 µM], 18%
- COc1ccc(-c2noc(-c3ccccc3OCC(=O)Nc3ccc(C(C)=O)cc3)n2)cc1
→ -6%, 14%, 2%, -3%, ?, 2%
- COCC(C)NC(C(=O)Nc1ccc(Cl)c([N+](=O)[O-])c1)c1ccccc1 (stereo unspecified)
→ 3%, -17%, -2%, -1%, 28µM*, -3%
- CC(=O)Oc1c(Cl)cc(N(C(C)=O)S(=O)(=O)c2ccccc2)c2ccccc12
→ ., 28%, -3%, 10%, ., 4%
- CCn1c2ccccc2c2cc(CN3CCN(Cc4cccc(Cl)c4)CC3)ccc21
→ -1%, 10%, -4%, 0%, ?, 3%
- CCOc1cc(/C=C2\SC(=Nc3ccc(CC)cc3)NC2=O)ccc1OCC(=O)O
→ -13%, ?, ?, ., -8%[2.33 µM], 18%
- CN(C)CCNC(C(=O)Nc1cccc(S(=O)(=O)N2CCOCC2)c1)c1ccccc1 (stereo unspecified)
→ ., 26%, i, -5%, ?, -1%
- Cc1ccc(C)c(/C(O)=C2\C(=O)C(=O)N(CCCn3ccnc3)C2c2ccncc2)c1 (stereo unspecified)
→ 2%, -3%, -1%, 5%, ?, 9%
- COc1ccc(CCNc2ncnc3sc(C)cc23)cc1OC
→ 3%, -15%, -9%, 4%, ., -3%
- O=C(c1cccc(F)c1)N1CCN(Cc2c[nH]c3ccccc23)CC1
→ -4%, 14%, -8%, -1%, 5%[0.501 µM], 15%
- Nc1nnc(SCC(=O)Nc2nnc(-c3ccccc3)o2)s1
→ ., -6%, -10%, 3%, -21%[12.7 µM], 6%
- CN(Cc1ccccc1N1CCCC1)C(=O)c1cc2cc(Cl)ccc2o1
→ ., -13%, -4%, 18%, -2%[2.33 µM], 14%
- Clc1ccc(CN2CCSCC2)c(Cl)c1
→ 1%, 31%[activator], 5%, 1%, 10µM*, 16%
- C=CCc1ccc(OCCOc2cccc3ccc(C)nc23)c(OC)c1
→ 1%, ?, -9%, -6%, 44%[0.501 µM], -6%
- CN1CCN(S(=O)(=O)c2ccc(Nc3cccc(Cl)c3)c([N+](=O)[O-])c2)CC1
→ ., -5%, 0%, -1%, 14%[12.7 µM], 0%
- C=CCN(CC=C)C(=O)C1CCN(Cc2ccc(OCc3ccccc3)cc2)CC1
→ -5%, 4%, -10%, -2%, 7.9µM*, -1%
- CC1=C(C(=O)Nc2cc(C(=O)N3CCN(c4cccc(C)c4C)CC3)ccc2C)SCCO1
→ -7%, -19%, -2%, -4%, 32µM*, -12%
- CC(=O)c1cccc(NC(=O)CN(C)Cc2ccc(OC(F)F)cc2)c1
→ 2%, 41%[activator], -2%, -1%, 20µM*, 0%

Retrieved one by one from the entries so far:
The line under a structure holds: BLM helicase inh, Pol iota inh, PGK inhibitor, Pin1 inhibitor, G9a block, GLS inhibitor
- OCCNCCCCSc1ccc(Cl)cc1
→ 4%, 11%, -9%, -3%, 11µM*, -3%
- Clc1ccc(CN2CCSCC2)c(Cl)c1
→ 1%, 31%[activator], 5%, 1%, 10µM*, 16%

An excerpt from above, reduced to PGK inhibitor and Pin1 inhibitor:
SMILES	PGK inhibitor	Pin1 inhibitor
O=C(CN1CCN(C/C=C/c2ccccc2)CC1)Nc1ccccc1C(=O)NC1CC1	-1%	1%
O=C(CNCc1ccccc1)Nc1cccc(Cl)c1Cl	4%	6%
O=C(C(c1ccccc1)c1ccccc1)N1CCN(Cc2ccco2)CC1	-8%	-9%
COc1cc(CN2CCC(C(=O)N3CCN(c4ccccc4F)CC3)CC2)cc(OC)c1O	-2%	-1%

Carrying on:
The line under a structure holds: BLM helicase inh, Pol iota inh, PGK inhibitor, Pin1 inhibitor, G9a block, GLS inhibitor
- COc1ccccc1-n1c(-c2cc(-c3ccc(F)cc3)n[nH]2)n[nH]c1=S
→ 0%, 18%, -3%, 3%, ., -26%
- COc1cccc(CNc2ncc(-c3ccccc3)n2C)c1
→ 1%, 24%, -16%, 7%, ?, -6%
- CCOc1ccc(-n2ccnc2SCC(=O)Nc2ccc(OC)cc2OC)cc1
→ -4%, 2%, -4%, 1%, ?, 0%
- Cc1nc(C)c(-c2csc(NCCc3ccccc3)n2)s1
→ -8%, 20%, -8%, ?, ?, 0%
- O=C(Nc1nc2c(s1)CCCC2=O)c1cnccn1
→ 0%, ?, -4%, 36%[activator], ?, -5%
- O=C(Nc1nnc(C2=COCCO2)o1)c1ccc(Cc2ccccc2)cc1
→ -17%, 148%[activator], 1%, -1%, 24%[59 µM], 3%
- O=c1c(-c2nn[nH]n2)coc2ccc(Cl)cc12
→ -2%, 58%[activator], 0%, -5%, 28µM*, -1%
- COCC(C)NCc1cc(Br)ccc1OC (stereo unspecified)
→ 0%, 65%[activator], 5%, -5%, -33%, ?
